Screening data: PubChem, PCMD
Biofilm kill mix = mixture kills Candida albicans biofilm cells; C. albicans biofilm persisters + clotrimazole, fluorescence viability; primary screen in compound mixtures of four per well; inhibition, % at 7.6 µM; 120,000 compounds, 0.02% hits;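 active = inhibition above 30.3% in the primary screen of four-compound pools, then above 30% when the compound was retested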;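 also: compounds exposed to preformed 24 h biofilms for 48 h; the number belongs to the whole pool; some results filed as inactive read as strong as hits; inactives centre near 12; 0% = biofilm with clotrimazole alone and 100% = kill control; retested singly at about 60 µM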
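Assay system: C. albicans biofilms / Medium: RPMI/MOPS medium, pH 7.0 / Schedule: biofilm formation 24 h, compound exposure 48 h, 37 °C / Measured by: Alamar Blue fluorescence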
* hit, by the source's call. An excerpt; count on the stated rates, not on these rows.

Compound,Biofilm kill mix
COc1cc(/C=C(/C#N)c2ccc(F)cc2)ccc1Oc1ccc([N+](=O)[O-])cn1,16.4
COC(=O)c1cc(O)cc(OC)c1Oc1cc(C)cc(O)c1C(=O)O,13.1
Cc1ccc2nc(CSc3nnc4ccccn34)cc(=O)n2c1,-8.8
O=[N+]([O-])c1cc(S(=O)(=O)N2CCCC2)ccc1NCCCN1CCOCC1,8.6
S=c1[nH]nc(-c2ccncc2)n1/N=C/C(Cl)=C\c1ccccc1,9.6
Cc1ccc(NC(=O)CN2C(=O)S/C(=C/c3ccc(O)c([N+](=O)[O-])c3)C2=O)cc1C,30.0
CCOC(=O)C1CCN(C(=O)c2c(C)oc3c2C(=O)c2ccccc2C3=O)CC1,-1.6
CC1CCN(CCC(=O)NN)CC1,13.0
Cc1ccc(CN2CCN(CC(=O)O)C2=O)cc1,10.6
COc1ccc(CC(=O)NCc2nnc(SCC(=O)Nc3cccc(F)c3)n2C)cc1,0.2
CCCCN(C(=O)c1ccc(S(=O)(=O)N(C)C)cc1)c1ccccc1,16.4
COc1ccccc1NC(=O)O/N=C(\N)c1ccccc1,21.5
O=C(Cc1ccc2c(c1)OCCO2)N1CCN(S(=O)(=O)c2cccc(Cl)c2Cl)CC1,10.9
O=C(NNC1CC(=O)N(c2ccccc2)C1=O)c1cccnc1 (stereo not drawn),23.0
CC(C)c1ncc(S(=O)(=O)c2ccc(C(F)(F)F)cn2)c(N)n1,6.9
COCCNC(=O)C(=O)Nc1ccc(Br)cc1,10.5
Cc1nc(-c2ccccc2)ccc1C(=O)O,15.3
CC1CCN(CC(=O)Nc2ccc(Br)cc2[N+](=O)[O-])CC1,11.4
COc1ccc2nc(SC(C(=O)c3ccccc3)c3ccccc3)nc(C)c2c1 (stereo not drawn),3.4
COc1ccc([N+](=O)[O-])cc1NC(=O)c1ccccc1SC,9.1
Cc1nc2c(-c3ccccc3)c(C)nn2c(SCC(N)=O)c1Cc1ccccc1,13.0
COc1ccc(CCN2CC(C(=O)NCCc3ccccc3)CC2=O)cc1OC (stereo not drawn),12.9
O=C(CN1C(=O)NC2(CCCC2)C1=O)N1CCN(S(=O)(=O)c2ccc(Cl)cc2)CC1,2.9
CC(=O)C(=Cc1cn(-c2ccccc2)nc1-c1ccccc1)C(C)=O,16.6
O=C(N/N=C/c1ccccn1)C(O)c1ccccc1 (stereo not drawn),12.5

Some values from the results shown:
For Biofilm kill mix, CCCCN(C(=O)c1ccc(S(=O)(=O)N(C)C)cc1)c1ccccc1 is entered as 16.4
For Biofilm kill mix, CC1CCN(CC(=O)Nc2ccc(Br)cc2[N+](=O)[O-])CC1 is entered as 11.4

(list continues)
Compound,Biofilm kill mix
COc1ccc(CCNC(=O)CN2C(=O)c3ccccc3S2(=O)=O)cc1,9.3
COc1cccc(NC(=O)N2CCCc3ccccc32)c1,6.8
COc1ccc(C2=NN(C(=O)CSc3nc4ncc(Cl)cc4[nH]3)C(c3ccco3)C2)cc1 (stereo not drawn),5.4
Cc1nn(C(C)C(=O)c2cccc(Cl)c2)c(C)c1[N+](=O)[O-] (stereo not drawn),4.5
COc1ccc(S(=O)(=O)N2CCCCC2)cc1NC(=S)Nc1cccc(Cl)c1C,12.5
COc1ccc(/C=C\c2cc(OC)c(OC)cc2CC[N+](C)(C)C)cc1OC,27.6
ONC(=Nc1cccc(C(F)(F)F)c1)c1cccnc1,10.3
Cc1c(-c2ccc(F)cc2)[n+](=O)c2c(n1[O-])CCCCC2,12.5
CCOC(=O)COc1ccc(S(=O)(=O)N2CCN(c3ccccc3)CC2)cc1,5.7
CCCCCCCCOC(=O)C[N+](C)(C)C/C=C(/C)Cl,-15.4
CCC(=O)N(c1ccc(C(=O)O)cc1)c1nc(-c2ccc(OC)cc2)c(C)s1,10.9
CC(C)(CO)Nc1nc(Cl)nc(NC2CCCCC2)n1,21.9
CC(C)n1cnc2c(Nc3cccc(Cl)c3)nc(NCCCO)nc21,20.4
CSc1nc(C)c(C(=O)C[n+]2ccccc2)cc1C#N,3.8
Cc1ccc2[nH]c(-c3ccccc3)c(CN3CCCC3)c(=O)c2c1,9.7
O=C(N/N=C/c1ccc(OC(=O)c2ccccc2)c([N+](=O)[O-])c1)c1ccc(O)cc1,27.5
Cc1ccc(NC(=O)CN(C)C(=O)CCOc2ccccc2C)cc1,20.7
CCN(C=NC1=NN(c2cccc(C(F)(F)F)c2)CC1)CC,7.6
Cc1cc(NS(=O)(=O)c2ccc(NC(=S)NC(=O)c3ccc(Br)cc3)cc2)no1,18.8
CN1CCC(N(C)C(=O)c2cc(=O)c3ccccc3o2)CC1,22.7
CCOc1ccc(NC(=O)CCNS(=O)(=O)c2ccc3c(c2)CCC(=O)N3)cc1,14.2
COC(=O)c1nn(-c2ccc(OC)cc2)c(=O)cc1NN,2.1
O=C(N/N=C/c1cc(Cl)cc([N+](=O)[O-])c1O)NC12CC3CC(CC(C3)C1)C2,13.8
Cc1ccc(NC(=S)NCc2ccc3c(c2)cc(C)n3C)c(C)c1,30.1
CCC(=O)Nc1ccc(NC(=O)CSc2nnc(-c3ccc(O)cc3)n2CC2CCCO2)cc1 (stereo not drawn),7.3

7 successive compounds already listed, quoted:
Compound,Biofilm kill mix
Cc1c(-c2ccc(F)cc2)[n+](=O)c2c(n1[O-])CCCCC2,12.5
CCOC(=O)COc1ccc(S(=O)(=O)N2CCN(c3ccccc3)CC2)cc1,5.7
CCCCCCCCOC(=O)C[N+](C)(C)C/C=C(/C)Cl,-15.4
CCC(=O)N(c1ccc(C(=O)O)cc1)c1nc(-c2ccc(OC)cc2)c(C)s1,10.9
CC(C)(CO)Nc1nc(Cl)nc(NC2CCCCC2)n1,21.9
CC(C)n1cnc2c(Nc3cccc(Cl)c3)nc(NCCCO)nc21,20.4
CSc1nc(C)c(C(=O)C[n+]2ccccc2)cc1C#N,3.8

The list goes on:
Compound,Biofilm kill mix
O=S(=O)(c1ccc(S(=O)(=O)N2CCC3(CC2)OCCO3)cc1)N1CCCC1,25.3
O=C(O)CCCC(=O)N1CCCC1,0.4
C=CCn1c(SCCN2CCCC2)nc2c([nH]c3ccccc32)c1=O,20.5
Cc1ccc(NC(=O)C(=O)NCC2CCCO2)cc1C (stereo not drawn),6.3
CN(C)c1ccc(/C=N/NC(=O)c2cccc(C(=O)N/N=C/c3ccc(N(C)C)cc3)n2)cc1,5.2
COC(=O)c1sc2nc3c(cc2c1N)CCCC3,5.8
CS(=O)(=O)c1ccc2nc(NC(=O)CS(=O)(=O)Cc3ccccc3)sc2c1,12.3
CCOC(=O)C1=C(C)NC2=C(C(=O)CCC2)C1c1ccc(O)c(OCC)c1 (stereo not drawn),6.2
COc1ccc2c(c1)C(SCC(=O)NCCc1ccccc1)CC(C)(C)O2 (stereo not drawn),8.7
COc1ccc2[nH]c(=O)c(CN(C)C(=O)c3cccs3)cc2c1,5.3
Nc1ccc(Cl)cc1C(=O)OCC(=O)NC1CCS(=O)(=O)C1 (stereo not drawn),21.3
OCC1(Cc2ccccc2Cl)CCN(C/C=C/c2ccccc2)CC1,-4.1
Cc1ccc(-c2cnc(NCc3cc4c(cc3[N+](=O)[O-])OCO4)n2C)cc1C,18.5
COc1ccc(/C=C2\SC(=N)N(c3ccc(F)cc3)C2=O)cc1OC,10.6
Cn1c(CCNC(=O)c2ccco2)nc2cc(NC(=O)C3CCCCC3)ccc21,9.6
Cc1ccc(S(=O)(=O)NC(=O)N(C)C2CCCCC2)cc1,23.9
CCC(=O)Nc1nc(-c2ccccc2)nc(SC)c1C(C)=O,12.1
Cc1cnc(Sc2ncccc2[N+](=O)[O-])nc1,13.5
Cc1ccc(N=Nc2c(N)nn(-c3ccccc3)c2N)cc1,16.2
COc1cc(C(=O)N/N=C/C2CC=CCC2)cc(OC)c1OC (stereo not drawn),10.7
COc1ccc(NC(=S)NC(C)C(c2ccccc2)N2CCOCC2)cc1 (stereo not drawn),8.6
CCN1CCN(CCc2nc3cc(NC(=O)COc4ccc(Cl)cc4)ccc3n2C)CC1,17.4
COc1ccc(C(=O)CCC(C)(C)[N+](=O)[O-])cc1OC,5.3
O=C(O/N=C1\CCS(=O)(=O)c2sccc21)C1CC1,14.8
O=C(c1ccc(Cl)cc1)C1CCCN(C(=O)c2csnn2)C1 (stereo not drawn),6.3
COc1ccc(OCC(=O)NNC(=O)C2CCCO2)cc1 (stereo not drawn),21.0
CCOc1ccccc1NC(=O)COC(=O)CN(C)S(=O)(=O)c1ccc(C)cc1,17.7
COc1ccc(N2CCN(S(=O)(=O)c3cc(C)ccc3OC)CC2)cc1,14.9
CN1CCN(C(=O)/C(=C\c2cccc([N+](=O)[O-])c2)NC(=O)c2cccs2)CC1,11.3
CCOc1ccc(C(=O)NCC(=O)OCc2csc(-c3ccccc3)n2)cc1,15.7
COc1ccc(N2C(=O)C3C(C2=O)C(C(=O)c2ccc(Cl)cc2)N2CCCC32)cc1 (stereo not drawn),-7.0
O=C(Nc1ccc2[nH]c(=S)sc2c1)c1ccccc1,12.7
O=C(c1ccco1)N1CCN(C(=S)Nc2cccc([N+](=O)[O-])c2)CC1,20.0
Cc1cccc(C2CC3(CC(C)(C)NC(=S)N3)Oc3cc(O)ccc32)c1 (stereo not drawn),18.4
O=C(NCCOc1nc(N2CCCCC2)nc(N2CCCCC2)n1)Nc1ccccc1,9.8
CCc1ccccc1NC(=O)CN(C)C(=O)Cn1ncc(Cl)c(Cl)c1=O,12.1
Cn1cnnc1Sc1ccc(C(=O)OCC(=O)NC2CC2)cc1[N+](=O)[O-],-4.9
Cc1ccc(Cn2c(SC(C)C(N)=O)nc3ccccc3c2=O)cc1 (stereo not drawn),23.8
COc1ccccc1C1c2[nH]c3ccccc3c2CCN1Cc1ccc(NC(C)=O)s1 (stereo not drawn),19.2
CCOC(=O)CC(NC(=O)C1c2ccccc2Oc2ccccc21)c1ccc(C)cc1 (stereo not drawn),13.4
Cc1nn(C)c(C)c1N1C(=O)c2cccc3c(N)ccc(c23)C1=O,12.2
C/C(=N/NC(=O)c1ccccc1)C1=C(O)CC(C)(C)CC1=O,24.2
Cc1ccc(C)c(NS(=O)(=O)c2ccc(OCC(=O)NCc3cccnc3)cc2)c1,8.2
O=C(Nc1ccc(S(=O)(=O)Nc2ccc(F)cc2)cc1)c1ccc(CN2CCOCC2)cc1,-7.1
NC(=O)NOCc1cccc(Cl)c1,9.7
COc1ccc(C(=O)NCc2ccc3c(c2)cc(C)n3C)cc1,1.2
O=C(O)CNC(=O)/C(=C\c1cccc([N+](=O)[O-])c1)NC(=O)c1ccco1,8.2
Cc1cc2cc(CNC(=O)c3ccc(C)c([N+](=O)[O-])c3)ccc2[nH]1,19.0
COc1ccc(/C=C/c2nc(-c3ccccc3O)n[nH]2)cc1OC,16.3
CC(C)CCn1nc(C(=O)Nc2nc3c(s2)CCCC3)c2ccccc2c1=O,-1.8

(further entries)
Compound,Biofilm kill mix
CCOc1ccc(NC(=S)NC(=O)c2c(Cl)cnn2CC)c([N+](=O)[O-])c1,4.0
COc1ccc2nc(/N=C(\N)NC(=O)Nc3ccccc3)nc(C)c2c1,10.6
CCNC(=S)N/N=C/c1cccc(/C=N/NC(=S)NCC)c1,3.6
Cc1cc(C)nc(CCNC(=O)c2cc(COc3ccc(F)cc3Cl)on2)n1,7.3
O=c1[nH]c2c(c(=O)[nH]1)CCC2,6.7
CC(=O)Nc1ccc(Nc2nc(C)c([N+](=O)[O-])c(N(C)c3ccccc3)n2)cc1,14.8
CCc1cc(-c2n[nH]c(=S)n2CC)cs1,16.7
Cc1ccc(NC(=S)N2CCC(C(N)=O)(N3CCCCC3)CC2)c(C)c1,21.0
CCSc1nnc(CSc2ncccn2)n1C,11.0
CCCCN(C)S(=O)(=O)c1ccc(C(=O)Nc2nnc(C3=COCCO3)o2)cc1,14.0
COc1ccc(Nc2nc(C(=O)N3CCc4cc(OC)c(OC)cc4C3)cs2)cc1,18.4
C=CCN1C(=O)C2C3CC(=O)C(c4ccccc43)C2C1=O (stereo not drawn),-7.9
COc1cccc(C(=O)NC(c2ccccc2)C2CCCC2)c1 (stereo not drawn),5.2
CSc1ccccc1C(=O)Nc1c(C)cccc1C,6.1
O=C(OCC(=O)N1CCN(c2ccccc2)CC1)c1cnc(Cl)c(Cl)c1,6.8
CC1CCc2cc(F)ccc2N1C(=O)c1cccs1 (stereo not drawn),15.7
COC(=O)Cc1c(O)ccn(Cc2ccc(Cl)c(Cl)c2)c1=O,8.7
O=C(Cn1cnc2c(nnn2Cc2ccccc2F)c1=O)N1CCN(c2ccccc2)CC1,9.6
CN(CCCCN1CCOCC1)Cc1nc(-c2ccc3c(c2)OCO3)no1,14.2
Cc1[nH]n(C)c(=O)c1N=Nc1ccc(S(C)(=O)=O)cc1,21.6
Cc1c(Cl)cccc1S(=O)(=O)N1CCC(C(=O)NNC(=O)C2CC2)CC1,22.6
CC1(C)C(=O)Nc2ccccc2N1C(=O)CSc1ncccn1,8.8
Cc1ccc(C(=O)NC(C)C(c2cccs2)N2CCCC2)s1 (stereo not drawn),16.5
